Screens deposited in PubChem BioAssay by several laboratories.
GALR2 ag = GALR2 receptor agonists, primary screen, cell-based; AID 803, 2007; 140,000 tested, 0.48% active; activation, %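 (tested at 5 µM)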; GALR2-expressing cells, agonist activation read-out;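 active = above mean plus 3 SD of all compounds, about 5% in these data, not always enough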;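 also: 0% = vehicle buffer wells and 100% = reference agonist at full effect; tested in CHO reporter cells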
Target sequence (O43603 whole entry, looked up): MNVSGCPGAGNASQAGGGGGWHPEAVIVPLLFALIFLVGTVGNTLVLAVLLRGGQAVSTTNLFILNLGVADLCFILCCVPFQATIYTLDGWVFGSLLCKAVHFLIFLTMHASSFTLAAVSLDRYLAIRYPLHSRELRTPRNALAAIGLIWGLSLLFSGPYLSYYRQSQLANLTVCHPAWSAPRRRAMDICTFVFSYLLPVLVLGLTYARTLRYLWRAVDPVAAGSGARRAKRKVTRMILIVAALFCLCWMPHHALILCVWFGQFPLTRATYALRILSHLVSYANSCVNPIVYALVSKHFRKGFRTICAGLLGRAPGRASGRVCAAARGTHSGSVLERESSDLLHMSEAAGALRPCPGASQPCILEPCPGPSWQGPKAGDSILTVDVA
PKD1 kinase inh = inhibitors of human PKD1 kinase, biochemical, fluorescence polarization. Serine/threonine-protein kinase D1 (Homo sapiens), Q15139. PKD1 kinase fluorescence polarization assay. inhibition, %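 (about 10 µM by stock and volumes)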. 200,000 tested, 0.056% active. AID 797, 2007;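 active = inhibition of 50% or more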;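 also: controls were vehicle for no effect and a reference inhibitor for full effect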
HSV replic up = enhancers of HSV replication in host cells, fold increase, host cell viability | HSV replication augmentation in cells | maximum fold increase | 220,000 tested, 0.005% active | AID 1956, 2009;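 active = peak rise of 1.5-fold or more in the series; inconclusive = self-fluorescent or not available for retest; tested in PC3 cells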;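 also: first round at 10 µM; read as green reporter fluorescence; hits show the peak of a series up to 25 µM; 1 = signal of infected wells without compound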
INS promoter inh = inhibitors of insulin promoter-driven GFP, primary screen, imaging, TRM-6 cells (human fetal islet line), eGFP reporter, cell count; reporter expression induced with tamoxifen; inhibition, % at 2 µM; 130,000 tested, 0.9% active; AID 1273, 2008;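 active = inhibition above the mean plus 3 SD, with well images judged a real hit on visual review, cut at about 60% in these data, passing the limit was not always enough; inconclusive = inhibition over the cutoff but images rejected on review; inactive = inhibition not above the cutoff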
RGS16-Gao HTS = modulators of RGS16 binding to Galphao, primary screen, biochemical, human proteins, multiplexed bead flow cytometry | Regulator of G-protein signaling 16 (Homo sapiens) + Guanine nucleotide-binding protein … | bead-based flow cytometry RGS16-Galphao binding, fluorescence; actives lie on both sides | binding response (% of control), % at 10 µM | 220,000 tested, 0.38% active | AID 1441, 2008;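 active = below 25% or above 175%, edge rows of some plates excepted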;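 also: Galphao activated by GDP with aluminum fluoride before binding; 100% = wells without compound and 0% = beads without RGS; some results beyond the cut were filed as inactive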
Target sequence (O15492 whole entry, looked up): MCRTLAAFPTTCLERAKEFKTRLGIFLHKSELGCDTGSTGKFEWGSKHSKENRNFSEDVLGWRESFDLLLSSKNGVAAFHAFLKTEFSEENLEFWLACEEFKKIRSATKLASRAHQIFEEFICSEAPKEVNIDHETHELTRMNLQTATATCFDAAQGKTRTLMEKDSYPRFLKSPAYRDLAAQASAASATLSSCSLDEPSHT
Target sequence (P09471 whole entry, looked up): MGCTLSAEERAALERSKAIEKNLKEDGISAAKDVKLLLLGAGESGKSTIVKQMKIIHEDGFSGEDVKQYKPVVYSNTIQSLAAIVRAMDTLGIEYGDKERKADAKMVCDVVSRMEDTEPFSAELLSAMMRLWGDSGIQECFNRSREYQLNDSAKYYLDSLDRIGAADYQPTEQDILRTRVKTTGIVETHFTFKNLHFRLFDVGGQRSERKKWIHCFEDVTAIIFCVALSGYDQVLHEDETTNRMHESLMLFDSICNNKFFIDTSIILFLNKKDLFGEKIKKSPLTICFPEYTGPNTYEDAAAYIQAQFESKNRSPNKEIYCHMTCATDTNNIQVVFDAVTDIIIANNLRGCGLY
INS promoter inh cell count = second read-out of INS promoter inh, no call of its own (marks repeat the call); normalized cell count, %; measured here: cell count, toxicity; reference of the scale not given here;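 cells exposed to compound for 48 h; stained nuclei by imaging scaled within each plate; lower means fewer cells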
HSV replic up primary fold = further read-out of HSV replic up, marked with its call; fold increase; compound at 10 µM; measured here: primary screen fold increase 10 uM; tested in PC3 cells;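 GFP signal in the first replicate; 1 = infected wells without compound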
Numbers without * were called inactive; i = inactive; ? = inconclusive; · = not tested or not shown.

SMILES | GALR2 ag | PKD1 kinase inh | HSV replic up | HSV replic up primary fold | INS promoter inh | INS promoter inh cell count | RGS16-Gao HTS
CN(C)CCNC(=O)Cn1nc(-c2ccc(Cl)cc2)ccc1=O | -1.3 | -3 | · | · | -15 | 70 | 99
Brc1cc2c(cc1C1Nc3ccccc3C3C=CCC31)OCO2 (stereo not given) | 0.7 | -1 | i | 1 | · | · | 105
Cc1cccc2cc(CN(CCCN3CCOCC3)Cc3nnnn3C(C)(C)C)c(=O)[nH]c12 | -1.0 | -5 | i | 1.2 | 7 | 110 | 102
Cc1cc(C)c(NC(=O)CS(=O)CC(=O)NCCCc2ccccc2)c(C)c1 (stereo not given) | -0.9 | -1 | i | 0.83 | -23 | 66 | 178
O=C(NNC1=NCCC1)c1cccc(S(=O)(=O)N2CCCC2)c1 | -1.0 | 1 | i | 1.1 | -6 | 108 | 115
O=C1C=C(NCc2ccc(Cl)cc2Cl)C2(CCCCC2)O1 | 1.3 | -5 | i | 0.81 | · | · | 98
Cn1c(SCC(=O)N2CCc3ccccc3C2)nnc1-c1ccncc1 | -0.1 | 3 | i | 1 | 13 | 142 | 106
O=C(N1CCC(O)(c2cccnc2)CC1)C12CC3CC(CC(C3)C1)C2 | 0.2 | 3 | i | 1 | · | · | 92
C#CCn1c(=NC(=O)c2ccccc2[N+](=O)[O-])sc2cc(S(C)(=O)=O)ccc21 | 4.4 | 9 | i | 0.78 | -15 | 169 | 108
CN1CCN(c2ccc(NC(=O)COc3ccccc3Cl)cc2)CC1 | -0.4 | 3 | i | 0.9 | -9 | 184 | 108
O=C(N1CCOCC1)N1CCN(S(=O)(=O)N2CCCCC2)CC1 | -1.1 | -8 | i | 0.91 | 72 | 101 | 239
Cc1oc(-c2ccccc2F)nc1CSCC(=O)NCc1ccc2c(c1)OCO2 | 0.4 | -10 | i | 0.85 | -69 | 158 | 120
C/C=C/c1c(F)c(F)c(Oc2ccc(C(=O)O)cc2)c(F)c1F | -0.3 | 2 | i | 1 | 41 | 85 | 95
CCCCn1c(N)c(NCC)c(=O)[nH]c1=O | · | 9 | i | 0.94 | · | · | 98
CSC(=NCCCN1CCOCC1)NS(=O)(=O)c1cccs1 | -0.2 | 1 | i | 0.91 | -25 | 111 | 151
Cc1ccc(S(=O)(=O)N2CCCC2C(=O)N2CCCCCC2)cc1 (stereo not given) | -0.2 | -3 | i | 1.1 | -343 | 48 | 101
O=C1NC2=C(CCc3ccccc32)C(c2ccccc2)N1 (stereo not given) | -2.0 | -1 | i | 0.91 | 61* | 104* | 110
COc1ccc(CCNC(=O)CN(c2ccccc2)S(C)(=O)=O)cc1OC | -1.7 | 13 | i | 0.88 | -33 | 53 | 102
COc1cc(Cl)c(C)cc1NC(=O)COC(=O)C(NS(=O)(=O)c1ccc(Cl)cc1)C(C)O (stereo not given) | -0.6 | -6 | i | 0.98 | 43 | 61 | 124
O=C(O)CCn1c(=O)c2ccccc2c2ccccc2c1=O | -2.0 | -4 | i | 0.9 | -8 | 132 | 99
CN(C)c1nc(SCC#N)nc(N2CCOCC2)n1 | 0.3 | -8 | i | 0.93 | 40 | 69 | 102
CN(CC(=O)Nc1ccccc1Oc1ccccc1)Cc1ccccc1F | 1.0 | -3 | ? | · | · | · | 100
Cc1ccc(C2CC(c3cccs3)=NN2S(=O)(=O)c2ccc(C)cc2)cc1 (stereo not given) | -2.1 | -10 | i | 1.1 | · | · | 104
O=C(CSc1ccc(-c2ccccn2)nn1)c1ccccc1 | · | 1 | i | 0.91 | · | · | 104
CCCCCC(=O)N/N=C/c1ccc([N+](=O)[O-])o1 | -3.0 | 0 | i | 0.76 | -6 | 119 | 100
O=C(N/N=C1\C(=O)c2cccc3cccc1c23)c1ccc(O)cc1 | · | 7 | i | 0.93 | · | · | 106
COc1cccc(CSc2ccc(S(=O)(=O)N3CCOCC3)cc2C(=O)NCC2CCCO2)c1OC (stereo not given) | · | 3 | i | 1 | · | · | 98
COc1ccc(NC(=O)c2ccc(COCC(F)(F)C(F)F)cc2)cc1OC | 0.1 | -3 | i | 0.92 | · | · | 100
CCS(=O)(=O)Nc1ccc(Cc2ccc(NS(=O)(=O)CC)cc2)cc1 | -2.6 | 5 | i | 0.92 | 26 | 88 | 101
C1CC2CN(c3nc4nonc4nc3N3CCSCC3)CCN2C1 (stereo not given) | · | -6 | i | 1.1 | · | · | 111
COc1cc2c(cc1OC)C(SC)=NC(C)(C)C2 | -1.4 | -9 | i | 0.89 | -19 | 117 | 103
Nc1ccccc1SC1CC(=O)N(c2ccc(Cl)c(Cl)c2)C1=O (stereo not given) | · | · | i | 1 | · | · | 101
CC(=O)Nc1ccc(NC(=O)CSCc2cnn(-c3ccccc3)c2-n2cccc2)cc1 | -1.8 | 5 | i | 1.3 | 17 | 96 | 98
Nc1nnnn1/N=C/c1ccccc1OCc1ccc(Cl)cc1 | -0.2 | -9 | i | 0.79 | 41 | 155 | 100
CC(C)CC1NC(=O)N(CC(=O)N2CCN(S(=O)(=O)c3ccc(Cl)cc3)CC2)C1=O (stereo not given) | -0.8 | -2 | i | 0.67 | 47 | 100 | 95
CCOC(=O)n1c(=O)oc2ccc(Cl)cc21 | -2.0 | -5 | i | 0.97 | -60 | 74 | 109
CC[C@@H](C)C(NC(=O)OC(C)(C)C)c1cn([C@@H](CCC(=O)OC(C)(C)C)C(=O)N2CCN(C(=O)OC(C)(C)C)CC2)nn1 (stereo not given in full) | · | 4 | i | 0.74 | · | · | 103
Nc1nonc1-n1nnc(C(=O)N/N=C/c2cccc(Cl)c2)c1CSc1ccccc1 | · | · | i | 0.88 | · | · | 103
Cc1nc2c(cnn2-c2ccccc2Cl)c(=O)n1-c1ccc(N2CCC(C)CC2)cc1 | -2.8 | -4 | i | 0.82 | · | · | 101
Cc1cc(Nc2ccc(F)cc2)nc(N)n1 | -3.7 | -10 | i | 0.87 | · | · | 98

An excerpt from above in order of SMILES length, falling.
SMILES | GALR2 ag | PKD1 kinase inh | HSV replic up | HSV replic up primary fold | INS promoter inh | INS promoter inh cell count | RGS16-Gao HTS
CC(C)CC1NC(=O)N(CC(=O)N2CCN(S(=O)(=O)c3ccc(Cl)cc3)CC2)C1=O (stereo not given) | -0.8 | -2 | i | 0.67 | 47 | 100 | 95
COc1cccc(CSc2ccc(S(=O)(=O)N3CCOCC3)cc2C(=O)NCC2CCCO2)c1OC (stereo not given) | · | 3 | i | 1 | · | · | 98
CC(=O)Nc1ccc(NC(=O)CSCc2cnn(-c3ccccc3)c2-n2cccc2)cc1 | -1.8 | 5 | i | 1.3 | 17 | 96 | 98
Nc1nonc1-n1nnc(C(=O)N/N=C/c2cccc(Cl)c2)c1CSc1ccccc1 | · | · | i | 0.88 | · | · | 103
CCS(=O)(=O)Nc1ccc(Cc2ccc(NS(=O)(=O)CC)cc2)cc1 | -2.6 | 5 | i | 0.92 | 26 | 88 | 101
Nc1ccccc1SC1CC(=O)N(c2ccc(Cl)c(Cl)c2)C1=O (stereo not given) | · | · | i | 1 | · | · | 101
CN(CC(=O)Nc1ccccc1Oc1ccccc1)Cc1ccccc1F | 1.0 | -3 | ? | · | · | · | 100
CCCCCC(=O)N/N=C/c1ccc([N+](=O)[O-])o1 | -3.0 | 0 | i | 0.76 | -6 | 119 | 100
O=C(CSc1ccc(-c2ccccn2)nn1)c1ccccc1 | · | 1 | i | 0.91 | · | · | 104
COc1cc2c(cc1OC)C(SC)=NC(C)(C)C2 | -1.4 | -9 | i | 0.89 | -19 | 117 | 103
CN(C)c1nc(SCC#N)nc(N2CCOCC2)n1 | 0.3 | -8 | i | 0.93 | 40 | 69 | 102
CCOC(=O)n1c(=O)oc2ccc(Cl)cc21 | -2.0 | -5 | i | 0.97 | -60 | 74 | 109
Cc1cc(Nc2ccc(F)cc2)nc(N)n1 | -3.7 | -10 | i | 0.87 | · | · | 98

Following part.
SMILES | GALR2 ag | PKD1 kinase inh | HSV replic up | HSV replic up primary fold | INS promoter inh | INS promoter inh cell count | RGS16-Gao HTS
COC(=O)c1sccc1NC(=O)CSc1nnnn1-c1ccccc1F | -2.1 | 0 | i | 0.87 | -14 | 131 | 102
O=C(O)c1csc(Cc2ccccc2)n1 | · | 0 | i | 0.86 | · | · | 104
CC(=O)Nc1ccc(CC#N)cc1 | · | · | i | 1.2 | · | · | 100
Cc1ccc2nc(C)c3c(c2c1)N(c1ccccc1)CC3 | · | · | i | 0.82 | · | · | 98
CC12CC3CC(C)(C1)CC(C(=O)Nc1nn[nH]n1)(C3)C2 | -0.8 | -5 | i | 0.88 | 28 | 113 | 92
COc1ccc(OC)c(S(=O)(=O)NCCO)c1 | -1.6 | -11 | i | 0.92 | 23 | 101 | 81
C=C(C)COc1ccc2oc(C)c(C(=O)OCCOC)c2c1 | -1.4 | -4 | i | 1.1 | -18 | 128 | 185
Cc1ccc(N=Nc2c(C)[nH]n(C(N)=S)c2=O)cc1C | -0.7 | -3 | i | 1 | -20 | 92 | 104
O=S(=O)(Nc1ccc(O)c(Sc2nc3ccccc3s2)c1)c1ccc(Cl)cc1 | -1.1 | 8 | · | · | 7 | 99 | 106
O=C(Nc1cccc2cccnc12)c1cccnc1 | -0.4 | 7 | i | 0.89 | -169 | 53 | 79
COC(CNC(=O)C(C)n1nc(C)c2ccccc21)OC (stereo not given) | · | -4 | i | 0.87 | 63 | 135 | 100
Oc1c(Cl)cc(Cl)cc1C(C#Cc1ccccc1)N1CCOCC1 (stereo not given) | -1.6 | -3 | i | 0.68 | 35 | 94 | 113
CCN1CCCC1CN(Cc1cc2ccc(C)cc2[nH]c1=O)C(=S)Nc1cccc(OC)c1 (stereo not given) | -0.7 | 13 | i | 0.84 | 18 | 162 | 100
O=C(CC1S/C(=N\S(=O)(=O)c2ccc(F)cc2)N(c2ccccc2)C1=O)Nc1ccccc1 (stereo not given) | -0.9 | -15 | i | 1 | 41 | 104 | 105
CC[N+](CC)(CC)C/C(N)=N/O | -1.9 | -7 | i | 0.98 | · | · | 96
COc1ccc(Cc2nc(-c3cccs3)no2)cc1OC | -1.0 | 3 | i | 0.89 | · | · | 103
COc1ccc(NC(=O)c2ocnc2C)cc1OC | -0.2 | 3 | i | 1.1 | 7 | 122 | 101
CC(=O)Nc1ccc(S(=O)(=O)Nc2ccc(Cl)nn2)cc1 | -2.5 | 12 | i | 0.98 | 27 | 60 | 98
CC(=O)OCC1OC(n2ccc(=O)[nH]c2=O)C(O)C1O (stereo not given) | -2.4 | -11 | i | 0.9 | · | · | 103
COc1ccc(CCN2C(=O)CCC2(C)C(=O)NC2CCCC2)cc1OC (stereo not given) | · | 3 | i | 0.93 | · | · | 95
CC(C)NC(=O)Nc1cccc(Cl)c1 | · | · | i | 1.1 | · | · | 106
CN(Cc1ccccc1)C(=O)c1cnc2n(c1=O)CCS2 | -1.7 | 5 | i | 0.74 | · | · | 103
CSc1nc(C)cc(OCC(=O)n2nc(C)cc2C)n1 | -2.4 | -8 | i | 1 | -38 | 134 | 105
COc1ccc(N(CC(=O)NCCC2=CCCCC2)S(=O)(=O)c2c(C)[nH]c(=O)[nH]c2=O)cc1 | · | · | i | 0.88 | · | · | 100
COc1ccc(C2NCCc3c2[nH]c2ccccc32)cc1COc1ccc(F)cc1 (stereo not given) | 3.2 | 6 | i | 0.93 | -7 | 100 | 121
CCCCOc1ccc(Cl)cc1CSc1nnc(C)n1N | -2.0 | -9 | i | 1.1 | -41 | 125 | 100
CC1=CC(=O)C=C(C)C1=NOC(=O)/C=C\c1ccccc1 | -0.4 | -7 | i | 1 | 3 | 124 | 104
O=C(N/C(=C/c1cccnc1)C(=O)N1CCOCC1)c1ccccc1 | -0.9 | -5 | i | 1 | -18 | 113 | 97
CCN(CC)S(=O)(=O)c1ccc(/C=C/C(=O)OCC#N)cc1 | · | 1 | i | 0.85 | -27 | 217 | 106
Cc1sc2nc(C3CC3)nc(SCC(=O)N3CCCc4ccccc43)c2c1C | -1.2 | -2 | i | 0.7 | -22 | 54 | 101
COC(=O)C1=C(C)NC2=C(C(=O)CCC2)C1c1cn(Cc2ccc(Br)cc2)nc1-c1ccccc1 (stereo not given) | 1.6 | 0 | i | 0.75 | · | · | 99

Compounds as they come; overall some 1.2% were active at least once.
